Beta2AR agonist – beta2AR agonists driving receptor internalization, primary screen, cell-based, FAP fluorogen, flow cytometry; Am2.2-beta2AR cells; reference of the scale not given here; response, % (test concentration not listed); Beta-2 adrenergic receptor (Homo sapiens), P07550; 0.43% of 340,000 active;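 active means response above a set limit, near 3 SD of response in nonfluorescent compounds, cut at about 42% in these data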;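 further: stock transfer was 100 nL into about 11 µL; a reference agonist was the positive control; negative values mostly stem from fluorescent compounds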
Target sequence (P07550 whole entry, looked up): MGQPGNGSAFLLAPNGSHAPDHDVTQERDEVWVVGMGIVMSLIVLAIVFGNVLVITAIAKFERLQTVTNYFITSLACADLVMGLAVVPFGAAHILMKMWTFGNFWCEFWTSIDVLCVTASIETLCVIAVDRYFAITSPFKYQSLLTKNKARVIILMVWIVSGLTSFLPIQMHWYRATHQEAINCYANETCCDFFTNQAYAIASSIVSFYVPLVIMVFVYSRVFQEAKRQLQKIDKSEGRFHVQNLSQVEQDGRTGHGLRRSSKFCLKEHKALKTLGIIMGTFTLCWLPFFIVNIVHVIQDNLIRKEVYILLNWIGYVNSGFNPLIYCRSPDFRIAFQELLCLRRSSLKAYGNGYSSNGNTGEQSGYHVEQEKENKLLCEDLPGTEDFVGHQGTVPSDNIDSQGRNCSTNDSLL
Vif TR-FRET – inhibitors of Vif binding to APOBEC3G peptide, primary screen, biochemical, TR-FRET, GST-Vif 1-94, biotin-A3G peptide, dose response retest (AID 1117319) | TR-FRET GST-Vif / biotin-A3G peptide binding; higher % means a stronger effect; test concentration not given here; strong numbers were not always called active | one-dose inhibition, %; IC50 in µM for titrated hits | 0.57% of 260,000 active;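 active means above the screen mean plus three standard deviations and confirmed in dose response; inconclusive means results disagree or hit not tested in dose response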;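 further: Vif residues 1-94 fused to GST binding biotinylated APOBEC3G peptide 110-148; 0% = full assay without inhibitor and 100% = GST in place of GST-Vif; retest series ran down from 100 µM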
LANA-H2B inh – blockers of LANA interaction with H2A/H2B – biochemical, FP readout, HTS, primary screen; Protein LANA1 (Human herpesvirus 8 type P (isolate GK18)), Q9QR71; cell-free LANA-H2A/H2B peptide, fluorescence polarization; inhibition, % (concentration not given with the values); 0.6% of 320,000 active; AID 2629, 2010; in the data active means inhibition mostly above about 10%, no sharp cut-off; inactive means mostly below about 6.7%;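 further: stock transfer was 7.5 nL into about 10 µL; 0% = median of vehicle wells and 100% = median of positive control wells; one replicate is shown; the record names a cut of 25% in any replicate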
Calb FLC – C. albicans growth inhibition with fluconazole, primary screen, CaCi-2 strain, Alamar Blue fluorescence; C. albicans CaCi-2 (fluconazole-resistant clinical isolate) + fluconazole, 48 h; 0.57% of 300,000 active; growth inhibition, % (concentration not given with the values); AID 1979, 2009;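 active means most replicates above 75%; inconclusive means exactly half above 75%; inactive means most below 75%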;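 further: all wells also contain fluconazole at 8 µg/ml as a sub-toxic cotreatment; 0% = median of DMSO wells and 100% = median of geldanamycin control wells; wells of about 8 µL received 7.5 nL stock; the first replicate is given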
HNF4A DNA FP – change in binding of human HNF4A to DNA, primary screen, biochemical, fluorescence polarization, FITC-DNA; activity change, % at 10 µM; AID 1224865, 2016; 1 h; 0.3% of 360,000 active; in the data active means activity change above about 30%, passing the limit was not always enough;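 further: controls were the assay level and a saturating level of protein; the project sought stronger binding though the title names inhibitors; some compounds called inactive have numbers as strong as hits; positive values seem to mean higher polarization but the record does not say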
Target sequence (P41235 whole entry, looked up): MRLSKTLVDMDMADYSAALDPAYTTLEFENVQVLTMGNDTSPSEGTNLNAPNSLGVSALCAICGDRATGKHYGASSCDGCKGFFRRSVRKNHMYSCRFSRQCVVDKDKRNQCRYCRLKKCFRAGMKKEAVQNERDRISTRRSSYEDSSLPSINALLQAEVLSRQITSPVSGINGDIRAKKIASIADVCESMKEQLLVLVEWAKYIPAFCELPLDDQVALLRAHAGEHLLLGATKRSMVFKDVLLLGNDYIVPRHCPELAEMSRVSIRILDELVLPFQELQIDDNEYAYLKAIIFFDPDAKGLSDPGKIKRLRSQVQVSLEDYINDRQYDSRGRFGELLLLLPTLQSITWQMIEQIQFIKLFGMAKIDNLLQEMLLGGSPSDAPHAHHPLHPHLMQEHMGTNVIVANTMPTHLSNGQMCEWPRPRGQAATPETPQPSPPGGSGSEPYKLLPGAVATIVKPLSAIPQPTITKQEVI
RanGTP-Imp inh – inhibitors of RanGTP-importin-beta interaction, primary screen, biochemical, FRET, CFP-Ran, YFP-importin-beta, homogeneous; Ran GTPase (GTP-bound) - importin-beta complex; cell-free CFP-Ran/YFP-importin-beta FRET ratio; inhibition, % (concentration not given with the values); 1.1% of 300,000 active;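 active means most replicates above 15%; inconclusive means exactly half above 15%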;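 further: 0% = DMSO wells and 100% = Ran loaded with GDP instead of GTP; wells of about 40 µL received 100 nL stock; the first replicate is given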
ALR inh – inhibitors of human ALR sulfhydryl oxidase, primary screen, biochemical, H2O2 detection, HRP-luminol luminescence, single point; inhibition, % (concentration not given with the values); FAD-linked sulfhydryl oxidase ALR (Homo sapiens), P55789; AID 485317, 2010; 3.8% of 290,000 active; purified ALR, DTT oxidation;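 active means mean and each replicate at 75% or more; inconclusive means only one of the two met; inactive means neither met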;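 further: stock transfer was 7.5 nL into about 7.5 µL; 0% = neutral wells and 100% = wells with inactivated enzyme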
Target sequence (P55789 whole entry, looked up): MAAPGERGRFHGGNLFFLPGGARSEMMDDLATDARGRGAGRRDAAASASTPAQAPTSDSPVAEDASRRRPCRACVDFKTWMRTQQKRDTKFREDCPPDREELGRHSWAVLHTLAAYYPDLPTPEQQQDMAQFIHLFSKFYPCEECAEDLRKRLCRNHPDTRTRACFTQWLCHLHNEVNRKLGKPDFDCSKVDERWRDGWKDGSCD
* = called active by the depositor; ? = inconclusive; . = no result given. Rows are unselected. Share with any hit: about 6.3%.

SMILES | Beta2AR agonist | Vif TR-FRET | LANA-H2B inh | Calb FLC | HNF4A DNA FP | RanGTP-Imp inh | ALR inh
Nc1ccnn1Cc1ccc(Br)s1 | 2 | 13% | -1.7 | 0 | 2.1 | 0.0 | 1
O=C(CCCOc1ccccc1)NN1C(=O)NC2(CCCCC2)C1=O | 6 | -2% | -2.4 | -7 | -4.3 | -3.5 | 1
CC(=O)c1sc(N/N=C\c2cccc(Br)c2)nc1C | 2 | -8% | -0.3 | 15 | 39* | 9.1 | 4
OCC[C@@H]1C[C@@H](O)[C@H](O)[C@@]2(CCc3ccccc3CO2)O1 | 3 | . | -0.9 | 4 | 2.5 | 1.9 | 2
Cc1nc2sc(C(=O)Nc3ccccc3Cc3ccccc3)c(C)c2c(=O)[nH]1 | -6 | . | -0.3 | -7 | 0.3 | -0.3 | -20
CCC(=O)NC(Cc1ccccc1)c1ccc2c(c1)OCCCO2 (stereo not given) | 2 | . | 1.8 | -15 | 2.5 | -4.3 | 37
COc1cc(NC(=O)Cn2cnc3c(OCc4ccccc4)ncnc32)cc(OC)c1OC | 7 | 0% | -0.6 | . | 6.4 | . | .
CC(C)[C@H](NC(=O)OCc1ccccc1)C(=O)OCC(=O)Nc1c(F)cccc1F | -1 | -2% | -8.2 | -9 | 0.9 | 2.6 | 1
O=S(=O)(Nc1ccc(C(F)(F)F)cc1)c1cccs1 | 1 | . | 1.2 | -1 | -2.4 | 12 | 0
COCCn1c(=O)[nH]c(=O)c2c(C(F)(F)F)cc(-c3cccs3)nc21 | -10 | 24% | 2.1 | 1 | -0.1 | 2.3 | 0
COc1ccc(N2C(=O)N(Cc3ccc(C)cc3)c3ccccc3S2(=O)=O)cc1 | -14 | -3% | -1.8 | 4 | 0.9 | 0.9 | .
CC(=O)N1CCOc2ccc(S(=O)(=O)NCC3CCC(C(=O)Nc4ncccc4C)CC3)cc21 (stereo not given) | -4 | . | 1.9 | -7 | 3.2 | -1.6 | 0
CCCC(C)C(=O)Nc1ccc(S(=O)(=O)Nc2nccc(C)n2)cc1 (stereo not given) | 0 | 2% | 1.3 | -11 | 0.6 | ? | 3
COc1cccc(OCC(=O)O)c1 | 3 | 3% | 0.8 | 22 | -5.2 | 0.2 | -4
Cn1ccnc1SCC(=O)Nc1ccc2c(c1)OCO2 | 0 | . | 1.1 | 7 | -1.0 | 4.1 | 90*
COCc1cc(C)nc(SCC(=O)Nc2cccc(C)c2C)c1C#N | 22 | 5% | -3.0 | 5 | -3.0 | -4.0 | -10
CC(C)CCCN1CCN=C1Nc1ccccc1 | -5 | . | 6.7 | -7 | -3.7 | 1.8 | 1
CN(C)c1ccc(N=Nc2nc3ccccc3n2C)cc1 | 0 | 6% | -2.6 | 73 | 1.6 | 6.2 | 70
Cc1nn(CC(=O)Nc2ccccn2)c(C)c1Br | -9 | 98% | 1.5 | -5 | -3.7 | -2.1 | 10
O=C(COc1ccccc1)NCC1COc2ccccc2O1 (stereo not given) | -1 | . | 2.9 | -1 | -0.1 | -5.1 | .

Rewritten as comma-separated lines: entries from further up
smiles,Beta2AR agonist,Vif TR-FRET,LANA-H2B inh,Calb FLC,HNF4A DNA FP,RanGTP-Imp inh,ALR inh
Cn1ccnc1SCC(=O)Nc1ccc2c(c1)OCO2,0,.,1.1,7,-1.0,4.1,90*
COCc1cc(C)nc(SCC(=O)Nc2cccc(C)c2C)c1C#N,22,5%,-3.0,5,-3.0,-4.0,-10

(listing goes on)
SMILES | Beta2AR agonist | Vif TR-FRET | LANA-H2B inh | Calb FLC | HNF4A DNA FP | RanGTP-Imp inh | ALR inh
Cc1ccc2[nH]c(C(=O)N/N=C/c3ccccc3O)c(C)c2c1 | -3 | . | 0.9 | -19 | 2.9 | 6.5 | -5
Cc1ccc(S(=O)(=O)N2CCn3cccc3C2C)cc1 (stereo not given) | 7 | 9% | -3.1 | . | -0.2 | . | 0
Cc1cc(C)c(S(=O)(=O)N2CCCOC2CNC(=O)C(=O)NCc2ccncc2)c(C)c1 (stereo not given) | -3 | 32% | 0.6 | ? | 2.2 | 1.7 | -15
COc1cc(C2C(C(=O)c3ccc(C)o3)=C(O)C(=O)N2c2cc(C)on2)ccc1OCc1ccccc1 (stereo not given) | 12 | . | 7.1 | 23 | -0.1 | -1.7 | 69
Cc1c(Cl)cccc1NC(=O)CNC(=O)c1ccco1 | 10 | 4% | 3.0 | -3 | -0.6 | -4.3 | .
Cc1ccc(CNC(=O)c2cnc3ccccc3n2)cc1 | -4 | . | -5.5 | 5 | 2.6 | 6.4 | -3
CC(Cc1ccc(Cl)cc1)N1CCC(n2nccc2NC(=O)C2CCCC2)CC1 (stereo not given) | 4 | . | 0.9 | -9 | -1.4 | 6.0 | -1
O=c1c2ccccc2nc2n1C1(CCCCC1)Cc1ccccc1-2 | -3 | -5% | -3.1 | 5 | 3.8 | -0.1 | -1
Cc1ccc(C(=O)N2CCCC(Nc3ccc(F)c(F)c3)C2)cn1 (stereo not given) | -1 | . | 7.3 | 10 | -2.3 | -4.6 | 14
CCC(Sc1nc2ncccc2[nH]1)C(=O)NCCc1ccccc1 (stereo not given) | -10 | . | 4.4 | -3 | -5.3 | 0.2 | -23
Fc1ccc(N=C2NN=C(c3cc(F)ccc3F)CS2)cc1 | 1 | 11% | 2.0 | . | 1.3 | . | -3
CC(=O)Nc1ccc(NC(=O)Nc2ccc(C)cc2C)cc1 | -2 | -2% | 15* | 21 | 4.4 | 6.2 | -7
Cc1ccc2nc(NC(=S)NC(=O)c3ccc(OC(C)C)cc3)sc2c1 | 5 | . | 1.6 | 0 | 0.8 | ? | 1
O=S(=O)(Nc1cccc(S(=O)(=O)N2CCCC2)c1)c1ccc(Cl)s1 | 5 | . | 4.3 | . | 0.5 | . | .
Cc1ccc2c(c1)c1c(n2CC(O)CN2C(=O)CNC2=O)C(=O)CCC1 (stereo not given) | -1 | 6% | -3.4 | 5 | 7.2 | 1.3 | .
C=C(C)Cn1c(SCC(=O)N/N=C/c2c(O)ccc3ccccc23)nc2ccccc2c1=O | -3 | 19% | 0.7 | 2 | 1.0 | -3.3 | -12
O=C(N/N=C\c1cn(-c2ccccc2)nc1-c1ccccc1)c1ccc(Br)o1 | 36 | 3% | -2.5 | -1 | -1.2 | -3.4 | -1
O=C(OCc1ccccc1)c1cccnc1Cl | -5 | 0% | -1.2 | 9 | 2.3 | -3.7 | -4
C=CCn1c(SCC(N)=O)nnc1-c1ccccc1O | 1 | 17% | 0.1 | 1 | 2.9 | -1.8 | 3
CCOC(=O)CCc1c(C)nc(SCC(=O)O)c(C#N)c1C | 3 | -5% | -1.8 | 7 | 1.1 | 0.5 | -2
O=C(N/N=C/c1ccccn1)c1ccccc1 | 2 | -2% | -1.8 | 15 | 1.1 | -3.5 | -3
CCc1ccccc1NC(=O)C/C(C)=N/NC(=O)COc1ccccc1C | 6 | . | -0.9 | 6 | -1.0 | 2.3 | 0
COc1ccc(C(=O)NN2CC(O)=C(c3nc4ccccc4n3C)C2=N)cc1OC | 2 | . | 1.2 | -1 | 0.8 | 0.8 | 0
O=C(Nc1ncccc1O)c1ccc(S(=O)(=O)N2CCCC2)cc1 | -2 | . | 1.7 | ? | 1.6 | . | -9
CC(=O)N1CCc2cc(C(=O)CN3CCN(C(=O)c4ccco4)CC3)ccc21 | . | 21% | 2.5 | -2 | . | -0.9 | -6
COC(=O)[C@H]1C[C@@H]1[C@H](NC(=O)[C@H]1C[C@@H]1[C@H](NC(=O)OCc1ccccc1)c1ccccc1)c1ccccc1 | 4 | 26% | 3.2 | 19 | -2.2 | -1.3 | 1
CCCOc1cccc(C(=O)N(Cc2ccccc2)C2CCS(=O)(=O)C2)c1 (stereo not given) | -10 | . | 1.9 | 0 | 0.0 | -1.7 | -4
COc1ccc(OC)c(/C=C/C(=O)Oc2ccc(C(C)=O)cc2)c1 | -4 | 5% | -3.3 | 2 | 1.3 | 0.5 | 56
O=C(CCc1ccccc1)Nc1ccc(N2CCCCC2)cc1 | 2 | -3% | 1.0 | -2 | 2.8 | 0.8 | 29
O=S(=O)(NCC1(N2CCOCC2)CCCCC1)c1ccccc1Cl | -4 | 7% | 2.0 | 8 | 1.0 | 8.6 | 2
CN1C(=O)Cc2cc(S(=O)(=O)N3CCN(c4cccc(Cl)c4)CC3)ccc21 | -6 | . | 2.9 | 1 | 2.3 | 4.6 | -3
COCC(=O)Nc1ccc(S(=O)(=O)Nc2ccccn2)cc1 | 9 | 6% | 6.0 | 3 | -0.4 | -0.4 | -23
O=C(Nc1ccncc1)c1cccc(S(=O)(=O)N2CCc3ccccc32)c1 | 9 | 4% | -2.9 | 15 | -0.2 | -1.9 | -3
O=C(OCc1nnc(-c2ccccc2)o1)c1cc2ccccc2cc1O | -2 | 32% | 3.3 | 7 | 2.2 | 1.9 | -13
CCOC(=O)C1CCCN(C(=O)CSc2nnc3nc(C)cc(C)n23)C1 (stereo not given) | 0 | . | 0.8 | . | -2.4 | . | 0
Cc1cccc(NC(=S)N2CCC(N(C)CC3CCCO3)CC2)c1 (stereo not given) | 3 | . | -7.0 | -2 | 4.7 | -5.6 | -5
COc1ccccc1Cn1c(=O)c2ccccc2n2c(SCC(=O)N3CCCCC3)nnc12 | -17 | 11% | -7.2 | -16 | 2.4 | -4.3 | 1
O=C(O)Cc1ccc(NC(=O)Nc2cccc(Cl)c2)cc1 | -3 | . | -7.1 | -4 | 3.2 | 1.0 | -3
COc1ccc(NC(=O)CSc2nnc(CNC(=O)c3ccco3)n2-c2ccccc2OC)cc1 | 1 | 6% | -10 | . | -3.7 | . | -7
COc1ccc([N+](=O)[O-])cc1NC(=O)COC(=O)c1ccccc1C(=O)c1ccccc1 | 5 | 19% | 12 | -3 | -0.5 | -2.3 | 1
Cn1ncc2c(=O)n(/N=C/c3ccccc3)cnc21 | -3 | . | 2.9 | -3 | -4.4 | 2.6 | 17
Cc1ccc2c(c1C)NC(=O)C2(O)CC(=O)c1ccc2c(c1)OCO2 (stereo not given) | 9 | >100µM* | -3.0 | 1 | 3.8 | -2.8 | -4
COc1ccccc1NC(=O)Cc1nnc(SCC(=O)NC2CCCC2)n1C | 7 | 1% | -2.6 | -1 | -1.3 | 0.8 | -10
CC1(C)CN(c2ccccc2)N(Cc2ccc(F)cc2)C1=O | 5 | -2% | 0.0 | -18 | -0.6 | 8.4 | -3
COc1ccc(OC)c(C2CC(=O)c3c([nH]c(C(=O)OC(C)C)c3C)C2)c1 (stereo not given) | 23 | -4% | -2.7 | -3 | 3.6 | 3.0 | -4
CC(C)CCn1c(=O)c2ccccc2c2ccccc2c1=O | 1 | -4% | 1.5 | 0 | -3.1 | 0.3 | 1
Cc1ccc(/C=N/N2CCCCC2)o1 | 2 | 1% | -1.5 | -1 | -1.0 | -0.3 | 1
O/N=C1\CCc2cc(Cl)ccc21 | -6 | -1% | 1.4 | -1 | 1.3 | -0.4 | -9
CCc1cc2c(CN3CCN(CC)CC3)cc(=O)oc2cc1O | -1 | >100µM* | 1.0 | -30 | -0.4 | 115* | 13
O=C1NC(=S)N/C1=C/c1cccc([N+](=O)[O-])c1 | -3 | . | 0.7 | -12 | -2.6 | 5.9 | 1
CCc1nc(SCC(=O)N2CCN(c3ccccc3)CC2)c2oc3ccccc3c2n1 | -9 | 5% | 5.7 | 45 | 0.2 | 0.2 | 32
O=C(CN1C(=O)NC2(CCCCC2)C1=O)Nc1ccc(Cl)c(S(=O)(=O)N2CCOCC2)c1 | -2 | 27% | -3.8 | . | 3.4 | . | .
